High-throughput results as filed in PubChem BioAssay.
Menin-MLL FL inh – menin-MLL binding inhibition, fluorescein peptide | Fluorescence polarization, fluorescein-MLL peptide displacement from menin | FP activity change, % at 61.4 µM | 290,000 tested, under 10 active | AID 1766; inconclusive = falling polarisation curve, or a change in total fluorescence; inactive = total fluorescence flat and polarisation flat or rising; no compound was filed as active; the % refers to the polarisation; negative = inhibition;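 further: % of control where 0% means no effect; inhibitors lower the polarisation; unlabelled MLL peptide was the positive control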
gsp antag – antagonists of gsp mutant (McCune-Albright syndrome). gsp-mutant cells, cAMP HTRF, 30 min; control for the full effect not named in the record. actives 0.4% (n = 340,000). Potency, µM (titrated, usually from 76.9 µM), without a hit: at the highest dose activity change, negative = inhibition, actives largely listed as inhibitors; active = falling curve of any shape with a large fitted effect; inconclusive = falling curve, mostly with a smaller effect; inactive = flat or rising curve; cell line not stated here;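 further: intracellular cAMP measured with PDE inhibitor Ro 20-1724 present during compound exposure; potency means the concentration at half of the fitted maximal effect; on the % scale 0 is the no-effect control and ±100 the full control effect; nearly all actives have a fitted effect of over 65% in size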
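Cells in G418 medium, seeded 16-24 h, 37C; buffer exchange to DPBS + 1 mM CaCl2, 0.5 mM MgCl2, 0.05% BSA; cpds in DMSO + […] (300 uM stock), 30 min 37C; HTRF cAMP detection.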
gsp ag – gsp mutant agonism; gsp mutant cells, cAMP HTRF, 30 min; control for the full effect not named in the record; Potency, µM (top dose mostly 76.9 µM), inactives show top-dose activation (cAMP increase), hits mostly activators; actives 0.13% (n = 340,000); active = well fitted activation curve with a large enough effect; inconclusive = small, poorly fitted or top-dose-only effect, or another doubt; inactive = no such curve, though single readings can be large or run the other way; cell line not stated here;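 further: phosphodiesterase inhibitor Ro 20-1724 added with compounds to block cAMP breakdown; potency means the concentration at half of the fitted maximal effect; nearly all actives have a fitted effect of over 60% in size; about a fifth of the inactives were tested at one dose only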
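Cells stably selected in G418 were plated at 2000/well, grown 16-24 hr, then given compounds in DMSO with the PDE inhibitor […] (300 uM solution added) for 30 min at 37C; cAMP was read by HTRF.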
TRPV1 potentiator – potentiators of human vanilloid receptor 1 (TRPV1). TRPV1-expressing cells, Fluo-8 calcium influx, capsaicin EC20 potentiation; host cell line not named in the record; control for the full effect not named in the record. potentiation, % at 8.33 µM. actives 0.02% (n = 320,000). AID 540277; active means potentiation above 80%; inconclusive means 30% to 80%; inactive means below 30%; further: 0% is about no effect
Target sequence (Q8NER1 whole entry, looked up): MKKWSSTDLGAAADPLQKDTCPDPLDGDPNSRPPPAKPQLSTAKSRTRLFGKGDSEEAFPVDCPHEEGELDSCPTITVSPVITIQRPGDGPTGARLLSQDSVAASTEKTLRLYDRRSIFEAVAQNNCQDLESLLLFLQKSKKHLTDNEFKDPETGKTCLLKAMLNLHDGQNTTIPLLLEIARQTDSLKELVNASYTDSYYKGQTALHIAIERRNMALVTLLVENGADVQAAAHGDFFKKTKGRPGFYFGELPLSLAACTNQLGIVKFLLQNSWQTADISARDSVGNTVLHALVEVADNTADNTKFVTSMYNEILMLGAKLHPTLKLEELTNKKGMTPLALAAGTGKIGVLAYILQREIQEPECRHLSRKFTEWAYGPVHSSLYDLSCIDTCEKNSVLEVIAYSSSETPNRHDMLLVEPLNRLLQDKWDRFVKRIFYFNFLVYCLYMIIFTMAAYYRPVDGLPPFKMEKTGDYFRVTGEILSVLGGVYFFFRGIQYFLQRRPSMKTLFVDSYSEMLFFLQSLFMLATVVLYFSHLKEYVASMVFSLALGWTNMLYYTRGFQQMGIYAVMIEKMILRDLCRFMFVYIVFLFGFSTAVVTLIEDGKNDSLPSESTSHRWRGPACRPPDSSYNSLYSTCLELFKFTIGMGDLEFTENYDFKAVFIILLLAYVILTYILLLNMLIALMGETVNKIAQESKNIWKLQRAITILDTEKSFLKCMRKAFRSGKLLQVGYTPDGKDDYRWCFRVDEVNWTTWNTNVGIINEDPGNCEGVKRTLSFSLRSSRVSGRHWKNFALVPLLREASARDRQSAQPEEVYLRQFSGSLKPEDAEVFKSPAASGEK
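Fluo-8 calcium influx in TRPV1-expressing cells, kinetic read (ex 480/em 520 nm). Compound added and read 3 min for agonist activity, followed by capsaicin at EC20 final and 2 min further read for enhancement.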
CtBP-E1A blk – inhibitors of CtBP/E1A interaction; activity change, % (no concentration beside the values); actives 0.49% (n = 340,000); AlphaScreen GST-E1A/His-CtBP binding, 1536-well; stronger effect = lower value; control for the full effect not named in the record; in the data active means activity change below about -65%; inconclusive means about -30% to -65%; inactive means above about -30%; further: on the % scale 0 is the no-effect control and ±100 the full control effect; compound concentration not given in the record
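Protein mix (5X: 125 nM each GST-E1A, His-CtBP) was incubated with pinned compound 2 h at 37 deg C in dark, in 50 mM Tris pH 8.0 buffer with 300 mM NaCl. Glutathione donor and nickel acceptor beads followed; AlphaScreen signal read after 1 h.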
Sfp inh – inhibitors of Bacillus subtilis Sfp phosphopantetheinyl transferase; Q9F4F7; AID 1490; actives 3.5% (n = 310,000); Potency, µM, inactives show max response, negative = inhibition, hits mostly inhibitors; Biochemical Sfp PPTase activity, qHTS; active means well fitted inhibition curve with a large enough effect; inconclusive means small, poorly fitted or top-dose-only effect, or another doubt; inactive means no such curve, though single readings can be large or run the other way;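 further: the enzyme is Sfp with the accession as filed and its product quenches rhodamine fluorescence; potency means the concentration at half of the fitted maximal effect; 0% = enzyme reaction without inhibitor and -100% = no enzyme wells; top concentration of the series not given in the record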
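After 15 min at room temperature with compound, 15 nM Sfp received 5 uM rhodamine-CoA plus 12.5 uM BHQ-2-ybbR (50 mM Hepes pH 7.6, 10 mM MgCl2). Rate came from the fluorescence difference over 30 min, ex 525/em 598 nm.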
ClpP mod – qHTS Assay for Activators of ClpP; ATP-dependent Clp protease proteolytic subunit (Bacillus subtilis (strain 168)), P80244; purified B. subtilis ClpP, FRET peptide cleavage, 20 min; Potency, µM (highest dose often 57.5 µM), without a hit: top-dose activity change, negative = active; actives 1.9% (n = 340,000); active = well fitted falling curve with a large enough effect; inconclusive = small, poorly fitted or top-dose-only effect; inactive = no such curve, though single readings can be large or run the other way; further: potency means the concentration at half of the fitted maximal effect; the source files actives as falling curves though it sought activators and does not explain the sign; nearly all actives have a fitted effect of over 65% in size; many hits overshoot -100%
Target sequence (P80244 whole entry, looked up): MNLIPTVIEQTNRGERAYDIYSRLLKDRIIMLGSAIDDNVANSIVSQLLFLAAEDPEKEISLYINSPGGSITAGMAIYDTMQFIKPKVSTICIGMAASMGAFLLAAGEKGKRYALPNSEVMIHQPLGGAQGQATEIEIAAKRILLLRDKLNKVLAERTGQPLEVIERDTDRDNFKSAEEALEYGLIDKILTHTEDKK
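ClpP 10 microg/mL final, pH 8 Tris/KCl buffer with BSA, glycerol, Tween-20; compound pinned in; FRET-FV substrate; RT 20 min; Ex320/Em430; ΔFRET vs ADEP 5.8 microM, DMSO, no enzyme.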
An asterisk follows results filed as active; ? = inconclusive; / = not tested or not shown; [ ] = remark or other dose. No enrichment for hits; 5.3% or so of the library scored in one or more.

SMILES | Menin-MLL FL inh | gsp antag | gsp ag | TRPV1 potentiator | CtBP-E1A blk | Sfp inh | ClpP mod
C=C(C)c1cccc(C(C)(C)NC(=O)Nc2cccnc2)c1 | -2.6 | 3% | -79%[inhibitor] | ? | 5 | 7% | /
COc1ccc(/C=N/NC(=O)CN(C2=NS(=O)(=O)c3ccccc32)c2ccccc2)cc1 | 10 | ? | 18% | 7 | -1 | 11% | -1.7%
COc1ccc(-c2cn[nH]c2-c2ccc(OCc3ccccc3)cc2O)cc1 | -3.5 | 1% | ? | -7 | -23 | 29% | /
CCOc1ccc(-c2c(C(=O)N/N=C/c3ccco3)nnn2-c2nonc2N)cc1 | / | -13% | 29% | 3 | 3 | 12% | -1.4%
CCCN1CCC(NC(=S)Nc2ccc(C(=O)OCC)cc2)CC1 | 3.1 | 1% | 17%[15.4 µM] | 0 | -10 | ? | -1.1%
CN(c1cccc(Cl)c1)S(=O)(=O)c1cccc(C(=O)Nc2ccc3c(c2)CCC3)c1 | 6.6 | -6% | -10% | -10 | -20 | -3% | -5.8%
O=C(NCCc1ccc(Cl)cc1)C1CC(=O)N(CCc2ccccc2)C1 (stereo not given) | 2.2 | -1% | ? | 0 | 4 | 6% | -0.5%
CC1CCCC(NC(=O)COC(=O)c2ccc([N+](=O)[O-])s2)C1C (stereo not given) | / | 20% | 4% | / | -10 | / | 1.1%
CC(C)C(=O)Nc1ccc(NC(=O)c2ccco2)cn1 | 2.3 | 4% | -15% | -6 | -3 | 2% | -2.1%
COC(=O)[C@@H]1CC[C@@](C)(c2ccc(OC)cc2)C1(C)C | / | -10% | 1% | -7 | / | / | -1.3%
CC(=O)Nc1ccc2nc(NC(=O)c3cccnc3)sc2c1 | 1.0 | -2% | ? | 13 | / | 9% | -6.7%
CC(C)N1CCC(N2CCN(C3CCCCC3)CC2CCO)CC1 (stereo not given) | -5.3 | 10% | 9% | 0 | -3 | 10% | /
Cc1ccc(C(=O)N2CCN(c3ccccc3)CC2)cc1S(=O)(=O)N1CCCC1 | -0.8 | 32µM* | -40%[inhibitor] | -15 | -2 | -5% | -2.1%
COc1cc(C(=O)Nc2ccc(S(=O)(=O)Nc3cnc4ccccc4n3)cc2)cc(OC)c1OC | -2.8 | -12% | ? | -23 | 7 | 43%[activator] | -20%
Nc1nnc(SC2CC(=O)N(c3ccccc3)C2=O)s1 (stereo not given) | 2.9 | 7% | -31%[inhibitor] | -1 | 5 | 79µM* | -2.7%
CCOC(=O)C1CCCN(C(=O)C(=O)c2cn(CC(=O)N3CCOCC3)c3ccccc23)C1 (stereo not given) | / | 2% | -43%[inhibitor] | 1 | 1 | 3% | -0.5%
O=C(COC(=O)c1ccccc1O)Nc1cccc(S(=O)(=O)NC2=NCCCCC2)c1 | 6.8 | -8% | -3%[15.4 µM] | 7 | -9 | 2% | /
O=C(CSc1nc(-c2ccccc2)cc(C(F)(F)F)n1)NCCN1CCOCC1 | 1.5 | 11% | 19% | -9 | -3 | 7% | -3.7%
O=C(NCc1ccc(F)cc1)C1CCN(S(=O)(=O)N2CCOCC2)CC1 | 1.1 | 9% | -21% | 1 | / | 14% | -2.4%
CCOC(=O)CNc1ncc([N+](=O)[O-])cc1C#N | 1.6 | 8% | -4% | 1 | -1 | 1% | 4.1%
O=C(O)CCSCCC(=O)O | -1.3 | 20% | -4% | 4 | -1 | -11% | 0.3%
COc1ccc(S(=O)(=O)N2CCOCC2)cc1NC(=O)CCNC(=O)c1ccc(Cl)cc1 | / | -7% | -7%[15.4 µM] | 5 | 6 | / | /
O=C(NCCc1cccc(Cl)c1)c1ccc(Cl)c([N+](=O)[O-])c1 | 3.0 | -23% | 3%[15.4 µM] | -14 | 4 | -16% | 0.0%
Cc1ccccc1Nc1nc(N)nc(CN(C)c2ccccc2)n1 | 0.1 | -6% | -27% | 21 | -10 | 20% | 0.8%
O=C1Nc2ccccc2C(=O)N2[C@H](c3ccccc3)[C@@H]3C(=O)N(Cc4ccccc4)C(=O)[C@@H]3[C@H]12 | -1.4 | 6% | 4% | -14 | -1 | 17% | -1.1%
COC(=O)c1c(C)oc(C)c1S(=O)(=O)NC(c1ccccc1)c1ccccc1 | 0.6 | -9% | 21% | 1 | 2 | 5% | /
COc1ccc(N2CCN(C(=O)Cc3ccc(Br)cc3)CC2)cc1 | -0.7 | -2% | 10% | -13 | / | 8% | -5.9%
COc1ccccc1-c1nnc2sc(-c3cc4ccccc4o3)nn12 | 2.8 | 17% | -16% | -5 | 4 | -4% | -2.3%
CCOC(=O)c1ccc(OCc2c(C)noc2C)cc1 | 2.7 | -10% | -1% | -15 | 5 | 17% | -1.6%
COc1ccc(-c2ccc(C(=S)N3CCN(C(C)=O)CC3)o2)cc1 | 6.2 | -12% | 8% | -4 | -3 | 13µM* | 4.2%
CCCN(CCC)S(=O)(=O)c1ccc(C(=O)Nc2ccc(OCC(=O)N3CCOCC3)cc2)cc1 | -0.7 | -17% | -18% | 1 | 0 | 4% | 1.0%
CC(=O)c1sc(Nc2ccc(C)cc2)nc1C | 23 | / | -5%[15.4 µM] | 4 | -4 | -7% | /
Cc1ccc(NC(=O)[C@H](C)NC(=O)C2CCN(C(=O)[C@@H](N)CC(C)C)CC2)cc1 | 1.3 | 10% | 17% | -9 | / | 4% | 0.0%
CCOCCn1c(SCc2ccc(F)cc2)nc2c1c(=O)[nH]c(=O)n2C | 1.6 | -2% | -36% | 4 | -2 | 0% | 0.1%
COc1ccccc1NC(=O)CSc1nnc(-c2ccoc2C)n1CCc1ccccc1 | 7.1 | 4% | -6% | -23 | -1 | -1% | -0.2%
CCOc1cc(NC(=S)NCCCN2CCOCC2)c(OCC)cc1NC(=O)c1cccc(C)c1 | 0.5 | 16% | -20% | 8 | -3 | 16% | -2.6%
Cc1cccc(CN2CCCC(C(=O)Nc3ccc(-c4cscn4)cc3)C2)c1 (stereo not given) | / | 24% | -39%[inhibitor] | -9 | -5 | 3% | 0.5%
CC(=O)C1=C(O)C(=O)N(c2ccc(Br)cc2)C1c1ccc(Cl)cc1 (stereo not given) | -0.5 | -18% | ? | -3 | 3 | 17% | -11%
CC(C)(C)NC(=O)NC(=O)CSc1cccc(C(F)(F)F)c1 | -1.0 | 7% | 12% | 7 | 17 | 1% | 1.1%
O=C(CCC(=O)N1CCOc2ccc(Cl)cc21)NCCCN1CCOCC1 | -15 | 7% | 16% | 14 | -6 | 9% | 1.3%
C[C@H](CO)N1C[C@H](C)[C@@H](CN(C)S(=O)(=O)c2ccccc2C#N)OCc2cnnn2CCCC1=O | / | / | -17% | / | 5 | / | 1.5%
Cc1ccc(-c2nc(CSCC(=O)NC3CCN(Cc4ccccc4)CC3)c(C)o2)cc1 | 0.6 | 8% | 1% | -2 | -14 | 5% | -15%
COc1cc(/C=C2/SC(=S)N(C)C2=O)ccc1OC(=O)c1ccco1 | ? | -5% | ? | ? | -11 | 19% | /
O=C(CN1CCNCC1)Nc1ccccc1Cl | 0.8 | -2% | -1% | -14 | 2 | 5% | 0.6%
Oc1nc(Nc2ccc(Cl)cc2Cl)sc1/C=C1\C=Nc2ccccc21 | ? | 8% | 10% | -4 | -7 | ? | ?
Cc1csc(SCc2nnc(-c3ccccc3Br)o2)n1 | 0.7 | -1% | -3% | 2 | -1 | 17% | -2.1%
CCOc1cc(C#N)c(NC(=O)Cn2nnc3ccccc32)cc1OCC | 1.5 | 5% | -4% | 2 | 3 | 7% | -0.3%
CCO[C@H]1OC(C(=O)N2CCN(Cc3ccc4c(c3)OCO4)CC2)=C[C@@H](c2cn(C(C)=O)c3ccccc23)[C@@H]1CCCO | -0.5 | -23% | -27% | -9 | -11 | -7% | -0.3%
O=C(O)C1C2CCC(O2)C1C(=O)Nc1ccccc1Br (stereo not given) | -1.6 | 0% | 11% | 19 | / | 21% | -0.6%
CSCCCN1CCCC(CO)(Cc2ccc(F)cc2)C1 (stereo not given) | 0.5 | -5% | -12% | -5 | / | 12% | -3.0%
CC1CCCCC1NC(=O)C1CC(=O)N(Cc2ccccc2)C1 (stereo not given) | -4.6 | 6% | ? | -3 | 7 | -4% | -3.2%
NC(=O)COc1cc2oc(=O)c3c(c2cc1Cl)CCCC3 | -4.1 | -23% | ? | -11 | / | 10% | 3.8%
CCOC(=O)N1CCN(C(=O)CSc2nnc(-c3cccc(OC)c3)o2)CC1 | 1.7 | -14% | 27% | 9 | 3 | -7% | -2.8%
CC1=C(C(=O)OC(C)(C)C)C(c2ccc(Br)cc2)NC(=O)N1CCCC(=O)O (stereo not given) | 2.7 | -13% | 5% | -16 | / | 17% | 0.9%
CCCC(=O)Nc1nc(-c2ccccc2)c(CC)s1 | -2.0 | -18% | 9%[15.4 µM] | -5 | / | 8% | /
Cc1ccc(CN2CC(C(=O)N(CC(C)C)c3c(N)n(Cc4ccccc4)c(=O)[nH]c3=O)CC2=O)cc1 (stereo not given) | / | -12% | ? | / | 7 | / | -0.5%
Cc1ccc2cc(-c3noc(C(C)(C)C)n3)c(=O)[nH]c2c1 | -1.5 | 1% | 17% | 0 | 1 | 0% | 28µM*
COc1cc2nc(C(C)(C)C)oc(=O)c2cc1OC | -4.6 | 2% | -5%[15.4 µM] | / | 1 | 7% | -1.6%
CN(C)c1ccc(/C=C2\Oc3ccc(C#Cc4cccc(N)c4)cc3C2=O)cc1 | / | 9% | 18% | / | 24 | / | -6.1%
COc1ccc(O[C@H]2C=C[C@@H](c3ccccc3)O[C@@H]2COC(=O)CC/C(C)=N/O[C@@H](C)c2cc(-c3c(C)cc(C)cc3C)no2)cc1 | -3.7 | / | / | -4 | / | 12% | /
CCOCC(=O)N1CCCC(C(=O)OCC)C1 (stereo not given) | -5.5 | 3% | -12% | 4 | 13 | 11% | -0.6%
